Compound activity as filed in PubChem.
MgrA-DNA mod – S. aureus MgrA-DNA binding modulation | fluorescence polarization | inhibition, %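 (about 10 µg/mL by stock and volumes)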 | 84,000 tested, 0.13% active | AID 602314;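 active means above 50% in either of two replicates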;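 further: 0% = protein plus DNA without compound and 100% = DNA alone without protein; higher means less MgrA bound to DNA so lower polarization; one replicate is shown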
S aureus helic – S. aureus DNA helicase inhibition; purified S. aureus helicase, fluorescence unwinding assay; about half of the hits fall short of the stated cut; 120,000 tested, 0.05% active; inhibition, %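 (tested at about 80 µM)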; AID 485395;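 active means both duplicates at 50% or more, or one of them with a favoured structure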;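 further: 0% = mean of negative control wells and 100% = mean of positive control wells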
* hit, by the source's call; . = not tested or not shown; & = joins results of further samples.

entry	MgrA-DNA mod	S aureus helic	molecule
1	3.0	.	CC(=O)OCC(=O)[C@@]1(O)CCC2C3CCC4=CC(=O)CC[C@]4(C)C3C(=O)C[C@@]21C (some centres not stated)
2	4.1	9	N#CCC(Cc1ccccc1)c1ccco1 (configuration not stated)
3	3.5	.	COc1ccc(C(=O)Nn2c(-c3cc(OC)c(OC)c(OC)c3)nc3ccccc3c2=O)cc1OC
4	1.9	.	CCCc1cnc(Oc2ncnc3cc(Cl)ccc23)nc1
5	.	-22	CCOC(=O)N1CCN(CC(O)COc2ccc3c(c2)CCC3)CC1 (configuration not stated)
6	-1.4	.	Cc1occc1-c1cc(N)n(-c2cccc(Cl)c2Cl)n1
7	-0.6	.	Cc1nnsc1C(=O)Nc1nn(C)c2cccc(F)c12
8	-2.7	-5	O=C(O)C1CC(=O)N(Cc2ccccc2)C1 (configuration not stated)
9	.	20	CCOC(=O)N1CCC(N2Cc3cccc(C(=O)N4CCN(C(=O)c5ccco5)CC4)c3C2=O)CC1
10	0.2	-5	Cc1c(C(=O)NC2CCCCC2)oc2ccccc12
11	2.3	.	O=C(Nc1ccc(Cl)cc1)c1ccc(-c2csnn2)cc1
12	0.5	.	O=c1oc(-c2ccccc2)nc2ccsc12
13	4.2	.	CCOc1ccc(N2C(=O)C3C4C=CC(CC4)C3C2=O)c([N+](=O)[O-])c1 (configuration not stated)
14	-3.7	13	CC(C)NC(=O)CC1Nc2ccccc2NC1=O (configuration not stated)
15	.	-20	O=C(CCC(=O)N1CCSc2ncccc21)NCc1cccc(Cl)c1
16	.	18	CNC(=O)c1oc2c(c1C)-c1nn(Cc3cccc(Cl)c3)cc1CC2
17	.	-3	Cc1ccc(Cl)cc1NC(=O)CO/N=C(\N)c1ccccc1
18	-2.0	.	COCc1cc(=O)[nH]c(SCCS(=O)(=O)c2ccc(Cl)cc2Cl)n1
19	.	1	COc1ccc(S(=O)(=O)NCc2cccn2Cc2ccccc2C)cc1
20	1.6	14	O=C(CCc1nc2cccnc2n1Cc1ccccc1)N1CCCCC1
21	-2.5	.	CN(C)c1ccc(/C=C2\CCC/C(=C\c3ccc(N(C)C)cc3)C2=O)cc1
22	-0.5	5	c1ccc(-c2ccnc(-c3cc(-c4ccccc4)ccn3)c2)cc1
23	-1.6	-1	COc1ccc(-c2nnco2)cc1OC
24	-0.1	7	O=C(NCCOc1ccccc1)c1ccc2c(c1)OCO2
25	-2.5	-20	COc1ccc2cc(-c3csc(-c4cccnc4)n3)ccc2c1
26	.	5	CCN(CC(=O)Nc1ccc2c(c1)OCCO2)CC(=O)Nc1cc(C)on1
27	.	-2	CSc1ccc(/C=N/O)cc1
28	1.9	-11	O=C(O)c1ccc2c(c1)nnn2C1CCCCC1
29	-0.2	2	CC(C)(C)c1ccc(OCNC(=S)NC(=O)c2cncc(Br)c2)cc1
30	-1.1	.	COC(=O)CC(N)c1cccc2ccccc12 (configuration not stated)
31	.	-5	Cn1ccc(=O)c2ccccc21
32	.	-7	Cc1cc(C)n(CCCNS(=O)(=O)c2cccs2)n1
33	.	9	NC(=O)c1c(N)sc2c1CCCCC2
34	.	-7	N#CCn1c(CN2CCN(c3cccc(C(F)(F)F)c3)CC2)nc2ccccc2c1=O
35	.	13	Nn1c(SCC(=O)N(C2CCCC2)C2CCS(=O)(=O)C2)nnc1C(F)(F)F (configuration not stated)
36	-6.9	21	Nc1cccc(C2OCCCO2)c1
37	.	-1	CC(C)CC(NC(=O)c1ccccc1Cl)C(=O)O (configuration not stated)
38	9.3	-4	CCC(C)NC(=O)CSc1cc(C)nc2c(-c3ccccc3OC)c(C)nn12 (configuration not stated)
39	.	6	NS(=O)(=O)c1ccc(NC(=O)c2cc(-c3ccc4c(c3)OCO4)nc3ccccc23)cc1
40	.	2	O=C(CN1CC(=O)Nc2ccccc21)Nc1ccc(N2CCCCC2)cc1
41	.	-25	COc1cc(C2c3c(oc4ccc(F)cc4c3=O)C(=O)N2CC2CCCO2)ccc1O (configuration not stated)
42	-1.6	3	CC(=O)n1c2ccccc2c2c(C#N)c(N3CCCCC3)sc21
43	.	-5	Cc1cc(C(=O)CSc2nncs2)c(C)n1CC1COc2ccccc2O1 (configuration not stated)
44	-0.5	6	CCOc1ccc(N=CC2C(Oc3ccc(Cl)cc3)C(=O)N2c2ccc(OCC)cc2)cc1 (configuration not stated)
45	.	24	CCc1nc2ccccc2c(NC(=O)CN2CCCCC2)c1C
46	0.4	7	Cc1ncc(NS(=O)(=O)c2ccc(NC(=O)NC3CCCCC3)cc2)c(C)n1
47	2.0	1	CC1CCCC(C)N1C(=O)c1cc(=O)c2ccccc2o1 (configuration not stated)
48	-0.9	6	CC1CCCC(C)N1C(=O)COC(=O)c1ccc(O)cc1 (configuration not stated)
49	-2.5	.	COc1ccc(C(=O)Nn2c(-c3ccc(F)cc3)nc3ccccc3c2=O)cc1Br
50	0.8	-11	CC(=O)Nc1cccc(SC(F)(F)F)c1

Whole records, looked up by structure. Values in the order: MgrA-DNA mod | S aureus helic
`Cc1ncc(NS(=O)(=O)c2ccc(NC(=O)NC3CCCCC3)cc2)c(C)n1` is entered as 0.4 | 7
`NS(=O)(=O)c1ccc(NC(=O)c2cc(-c3ccc4c(c3)OCO4)nc3ccccc23)cc1` is entered as . | 6
`COc1cc(C2c3c(oc4ccc(F)cc4c3=O)C(=O)N2CC2CCCO2)ccc1O` (configuration not stated) is entered as . | -25
`CC(=O)Nc1cccc(SC(F)(F)F)c1` is entered as 0.8 | -11
`Cc1cc(C(=O)CSc2nncs2)c(C)n1CC1COc2ccccc2O1` (configuration not stated) is entered as . | -5

Seven of these compounds in a different format.
entry	mol	MgrA-DNA mod	S aureus helic
30	COC(=O)CC(N)c1cccc2ccccc12 (configuration not stated)	-1.1	.
31	Cn1ccc(=O)c2ccccc21	.	-5
32	Cc1cc(C)n(CCCNS(=O)(=O)c2cccs2)n1	.	-7
33	NC(=O)c1c(N)sc2c1CCCCC2	.	9
34	N#CCn1c(CN2CCN(c3cccc(C(F)(F)F)c3)CC2)nc2ccccc2c1=O	.	-7
35	Nn1c(SCC(=O)N(C2CCCC2)C2CCS(=O)(=O)C2)nnc1C(F)(F)F (configuration not stated)	.	13
36	Nc1cccc(C2OCCCO2)c1	-6.9	21

Next section
entry	MgrA-DNA mod	S aureus helic	molecule
51	-9.6	13	NCCNC(=O)c1ccncc1
52	.	-11	NNC(=O)COc1ccccc1F
53	0.0	4	O=C(Nc1cccnc1)C12CC3CC(CC(C3)C1)C2
54	-1.1	.	O=C(O)CCSc1ncnc2nc[nH]c12
55	-1.9	-18	CC1CCCC(NC(=O)COC(=O)c2ccccc2O)C1C (configuration not stated)
56	-1.1	-14	Cc1c(-c2ccccc2)oc2c(C(=O)O)cccc2c1=O
57	-1.1&9.9	.	CCc1cccc2c3c([nH]c12)C(CC)(CC(=O)O)OCC3 (configuration not stated)
58	.	6	CCC(=O)NC1CC(=O)N(c2ccc(F)cc2)C1 (configuration not stated)
59	1.0	-3	CCCCc1nc2ccccc2c(C(=O)O)c1C
60	-1.4	9	O=C(Nc1ccc2nn(-c3ccccc3)nc2c1)C(F)(F)F
61	.	18	c1ccc(-c2nnc(-c3ccncc3)o2)cc1
62	17	9	CC1=C(C)C2C(=O)N=C(c3ccc(-c4ccc(C(=O)O)cc4)o3)N=C2S1 (configuration not stated)
63	0.6	-3	CCOC(=O)CSc1nc(C#N)c(SCC(=O)OCC)s1
64	.	-4	CCOC(=O)c1cc(-c2cc3ccccc3o2)n[nH]1
65	5.1	8	CCCNC(=O)CN1C(=O)COc2ccccc21
66	-1.4	15&17	Cc1ccc2nc(NC(=O)c3cccs3)sc2c1
67	0.8	.	COc1ccc(C(=O)NN2C(=O)C3C(c4ccccc4)C=CC(c4ccccc4)C3C2=O)cc1 (configuration not stated)
68	.	7	N#Cc1ccccc1COc1ccccc1C(N)=O
69	-1.9	2	CCOC(=O)CNc1n[nH]c(N)n1
70	.	-32	Cc1cc(C)n(C(=O)C2CCCN2S(=O)(=O)c2ccccc2)n1 (configuration not stated)
71	-0.4	-4	Nc1cc(C(F)(F)F)ccc1OCc1ccccc1
72	.	3	COc1cccc(-n2c(-c3cccc(S(=O)(=O)N(C)C)c3)n[nH]c2=S)c1
73	0.8	.	CCN(CC)c1ccc(-n2c(C)c(C(=O)O)c3cc(OC)c4ccccc4c32)cc1
74	3.6	12	Cc1cccc(-c2nnc(N(C(=O)C3CCC3)C(C)C)s2)c1
75	.	-12	CCOC(=O)c1sc2nc(C)nc(SCc3nnc(-c4ccc(Cl)cc4)o3)c2c1C

Grouped by structure, the entries above containing a thiophene ring, fused or not
entry	MgrA-DNA mod	S aureus helic	molecule
12	0.5	.	O=c1oc(-c2ccccc2)nc2ccsc12
32	.	-7	Cc1cc(C)n(CCCNS(=O)(=O)c2cccs2)n1
33	.	9	NC(=O)c1c(N)sc2c1CCCCC2
42	-1.6	3	CC(=O)n1c2ccccc2c2c(C#N)c(N3CCCCC3)sc21
66	-1.4	15&17	Cc1ccc2nc(NC(=O)c3cccs3)sc2c1
75	.	-12	CCOC(=O)c1sc2nc(C)nc(SCc3nnc(-c4ccc(Cl)cc4)o3)c2c1C

The list goes on.
entry	MgrA-DNA mod	S aureus helic	molecule
76	-2.0	5	Nc1cc(-c2ccccc2)nc2ccccc12
77	1.1	-10	COc1ccc(C(O)c2nccn2C)cc1 (configuration not stated)
78	.	7	CC(C)N(C(=O)CSc1nnc2sc3ccccc3n12)C(C)C
79	.	8	O=C(O)CCCN1Cc2ccccc2C1
80	-0.6	0	CC1(C)CC(=O)C=C(Nc2ccc(N)cc2)C1
81	.	6	c1ccc(-n2ncnc2-c2ccc3c(c2)OCO3)cc1
82	2.8	3	COC(=O)C1=CN(CCOC23CC4CC(CC(C4)C2)C3)C=C(C(=O)OC)C1c1cccc(F)c1
83	.	-12	O=C1NC2=C(C(=O)OC2)C(c2ccc(F)cc2)N1 (configuration not stated)
84	-2.1	3	CCCc1nnc(SCC(=O)c2ccccc2)o1
85	-3.3	7	COC(=O)CC1=C(C(=O)OC)C(c2cccnc2)C(C#N)=C(N)O1 (configuration not stated)
86	-1.1	17	CN(Cc1ccccc1)C(=O)CCc1ccccc1
87	.	-7	Cn1cnnc1SCC(=O)c1ccc2c(c1)NC(=O)CO2
88	-1.9	2	COc1cc2c(C(=O)N3CCCCC3C)cn(C)c(=O)c2cc1OC (configuration not stated)
89	-1.8	.	CCOC(=O)N/N=C/c1ccc(OC)c(OC)c1
90	-0.8	.	CC1(C)OC(=O)C(=Cc2cccn2-c2ccc(C(F)(F)F)cc2)C(=O)O1
91	.	-9	Nc1nc(N)c2[nH]c(-c3ccccc3)nc2n1
92	0.4	14	COc1ccccc1C(=O)NCCCc1nc2ccccc2[nH]1
93	0.0	.	CCOC(=O)c1c(C=O)oc2c(C)cc(OC(=O)c3cccc(Cl)c3)c(Br)c12
94	-2.0	2	CCOC(=O)C1C(=O)NC(N2CCN(CC)CC2)=NC1C(C)C (configuration not stated)
95	.	8	CCC1(CC)CC(=O)C=NC1=O
96	.	11	O=C1CN(c2ncnc3sc(-c4ccccc4)cc23)CCN1
97	2.8	.	Cc1cc(-c2nn(C)c(=O)c3ccccc23)cc(C)c1OC(=O)Nc1ccc(Cl)cc1
98	.	-1	O=C(CSc1nc2ncc(Cl)cc2[nH]1)c1ccc(S(=O)(=O)N2CCCC2)cc1
99	-0.3	.	CSc1cccc(NC(=S)NCc2cccnc2)c1
100	.	-5	Clc1ccc2nc(N3CCCC3)nc(-c3ccccc3)c2c1
101	-3.0	.	O=S(=O)(c1ccc(-c2cc(C(F)(F)F)on2)s1)N1CCN(Cc2ccccc2)CC1
102	.	31	COc1ccccc1N1CCN(C(C)C(=O)N2CC(C)CC(C)C2)CC1 (configuration not stated)
103	.	6	O=c1cc(Cn2nnc(-c3ccc(Cl)cc3)n2)nc2sccn12
104	-3.5	.	Cc1onc(-c2c(Cl)cccc2Cl)c1C(=O)NCC(=O)NN
105	-1.4	.	COC(=O)c1sc(-c2cccs2)cc1NC(=O)CSCC(=O)O
106	0.9	.	O=C1/C(=C/c2ccc(-c3nn[nH]n3)cc2)C(c2ccccc2)Oc2ccccc21 (configuration not stated)
107	.	-15	O=C(N[C@@H](Cc1ccc(O)cc1)C(=O)O)OCc1ccccc1
108	-1.1	10	CCCCS(=O)(=O)c1sc2nc(C)cc(C)c2c1N
109	2.5	7	O=C(OCCCN1C(=O)c2ccccc2C1=O)c1ccc(Cl)cc1Cl
110	.	-5	O=C(NC1CCCCC1O)c1cccc(Cl)c1 (configuration not stated)
111	.	-8	COC(=O)c1c(F)c(F)c(NCCO)c(F)c1F
112	.	9	Cc1nn(-c2ccc(N3CCCC3)nn2)c(C)c1CCC(=O)NCc1ccc2c(c1)OCO2
113	.	6	O=C(CCc1ccccc1)N1CCN(c2ccc(N3CCCCCC3)nn2)CC1
114	4.7	2	NC(=O)c1noc(C(=O)N(c2ccc(OC(F)(F)F)cc2)C(C(=O)NC2CCCC2)c2c[nH]c3ccccc23)c1N (configuration not stated)
115	.	10	CN=c1scc(C)n1/N=C/c1ccc2c(c1)OCO2
116	.	6	CCc1ccc(NC(=O)c2sc3ncnc(N4CCN(C)CC4)c3c2C)cc1
117	0.9	-1	O=C(CSc1ccc(-c2cccnc2)nn1)c1ccc(F)cc1
118	19	0	Cc1ccc2nsnc2c1S(=O)(=O)NC(C)(C)C
119	.	24	COc1cc(NC(=O)C2CCN(c3ncccn3)CC2)cc(OC)c1
120	.	2	O=C(O)C(CSc1ncccn1)CSc1ncccn1
121	0.9	5	Cc1ccc(CNC(=S)NC2CCN(C)CC2)cc1
122	.	-2	CN(Cc1ccccc1)C(=O)COCc1cc(-c2ccco2)on1
123	.	12	CC1CCC2(CC1)NC(=O)N(/N=C/c1ccccc1)C2=O (configuration not stated)
124	-2.8	7	O=P(O)(CCc1ccccn1)CN1CCOCC1
125	2.2	17	CCN(CC)CCNc1c2c(c(C#N)c3nc4ccccc4n13)CCCC2
126	-0.3	10	CCOC(=O)c1cc(S(=O)(=O)N2CCCC2)cn1C
127	-2.5	.	Cc1cccc(C)c1NC(=O)CN1CCN(CCCC(c2ccc(F)cc2)c2ccc(F)cc2)CC1

A portion of the library; the hit share may differ from the screen's.
